From PubChem BioAssay
D2 ag = activates the human D2 dopamine receptor; 360,000 tested, 0.084% active; DiscoveRx PathHunter D2 beta-arrestin, luminescence, 90 min; 100% = 57 uM dopamine signal; activation, % (test concentration not listed); P14416; in the data active = activation above about 40%; inconclusive = about 15% to 40%; inactive = below about 15%; note: compound concentration not given in the record; the text of the record calls up to 30% inactive
Target sequence (P14416 whole entry, looked up): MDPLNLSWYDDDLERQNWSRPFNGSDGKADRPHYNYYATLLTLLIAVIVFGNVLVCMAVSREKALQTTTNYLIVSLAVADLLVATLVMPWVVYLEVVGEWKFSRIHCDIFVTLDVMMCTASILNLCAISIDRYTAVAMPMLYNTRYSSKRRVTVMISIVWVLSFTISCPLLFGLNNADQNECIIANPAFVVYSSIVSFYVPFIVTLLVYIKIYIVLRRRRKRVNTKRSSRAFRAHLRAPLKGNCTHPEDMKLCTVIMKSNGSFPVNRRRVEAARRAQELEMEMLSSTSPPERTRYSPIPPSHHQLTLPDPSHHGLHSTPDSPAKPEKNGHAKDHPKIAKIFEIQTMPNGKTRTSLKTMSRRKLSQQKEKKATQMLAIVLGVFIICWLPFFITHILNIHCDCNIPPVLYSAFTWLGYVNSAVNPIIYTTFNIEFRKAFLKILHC
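DiscoveRx PathHunter D2 beta-arrestin cells (2,100/well) attached overnight, then compound-stimulated 90 min at 37 C in HBSS/10 mM HEPES/0.1% Tween-20 buffer; beta-galactosidase complementation read by luminescence after 1 h at ambient temperature. Dopamine 57 uM final (EC100) as control.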
CtBP-E1A blk = CtBP/E1A binding inhibition | AlphaScreen GST-E1A/His-CtBP binding, 1536-well; stronger effect = lower value; control for the full effect not named in the record | activity change, % (test concentration not listed) | 340,000 tested, 0.49% active; in the data active means activity change below about -65%; inconclusive means about -30% to -65%; inactive means above about -30%; note: % is set by controls: 0 for no effect and ±100 for the full control effect; compound concentration not given in the record
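In 5 uL wells, 23 nL compound meets equimolar GST-E1A and His-CtBP (5X stock 125 nM each) for 2 h, 37 °C. Beads (5X, 50 ug/mL) then 1 h, 37 °C, dark.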
Six1-Eya2 blk = blocks human Six1 binding to Eya2; activity change, % (no concentration beside the values); AlphaScreen GST-Six1/His-Eya2 binding, biochemical; stronger effect = lower value; control for the full effect not named in the record; AID 651725; 360,000 tested, 0.56% active; in the data active = activity change below about -65%; inconclusive = about -30% to -65%; inactive = above about -30%; note: % is set by controls: 0 for no effect and ±100 for the full control effect; compound concentration not given in the record
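AlphaScreen luminescence read after one hour at 37 °C in darkness. Pin-transferred compounds met GST-Six1 and His-Eya2 protein (5X stock 250 nM/500 nM) plus glutathione donor and Ni-chelate acceptor beads (5X, 50 ug/mL).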
TRPML1 ag = human mucolipin-1 channel agonism; TRPML1-expressing cells, Ca2+ dye fluorescence, FDSS; host cell line not named in the record; reference of the full effect not given here; Q9GZU1; AID 624414; 410,000 tested, 0.12% active; activation, % (test concentration not listed); in the data active = activation above about 50%; inconclusive = about 30% to 50%; inactive = below about 30%; note: 0% is about no effect; the text of the record puts the active cut at 80%
Target sequence (Q9GZU1 whole entry, looked up): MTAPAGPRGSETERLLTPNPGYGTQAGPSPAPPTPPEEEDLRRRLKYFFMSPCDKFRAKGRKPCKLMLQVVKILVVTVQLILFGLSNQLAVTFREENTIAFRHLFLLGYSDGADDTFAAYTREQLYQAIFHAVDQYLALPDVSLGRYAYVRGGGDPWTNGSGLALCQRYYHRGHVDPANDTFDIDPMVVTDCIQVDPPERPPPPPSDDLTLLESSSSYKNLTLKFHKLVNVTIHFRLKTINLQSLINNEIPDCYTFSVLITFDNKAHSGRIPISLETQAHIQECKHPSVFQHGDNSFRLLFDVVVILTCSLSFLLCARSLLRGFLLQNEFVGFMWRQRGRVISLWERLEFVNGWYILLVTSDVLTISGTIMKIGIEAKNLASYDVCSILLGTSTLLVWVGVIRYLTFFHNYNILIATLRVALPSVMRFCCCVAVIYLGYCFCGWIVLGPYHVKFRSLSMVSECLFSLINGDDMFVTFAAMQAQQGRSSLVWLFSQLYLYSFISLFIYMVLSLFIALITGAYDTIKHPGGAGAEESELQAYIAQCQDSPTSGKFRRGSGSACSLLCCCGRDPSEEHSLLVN
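Kinetic FDSS Ca2+ read in Tet-induced TRPML1-DL cells (ABD Ca8 dye plus quencher, 45-90 min RT loading): baseline, then compound, then 110 s agonist window; EC80 agonist 54-4 at 4uM final added afterwards for a 110 s antagonist window.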
TRPML1 blocker = inhibitors of human TRPML1 channel; Q9GZU1; TRPML1-inducible cells, Ca2+ dye fluorescence, FDSS; stronger effect = lower value; inhibition of EC80 agonist-evoked calcium signal; activity change, negative = inhibition, % (no concentration beside the values); 390,000 tested, 0.02% active; AID 624415; in the data active means activity change below about -50%; inconclusive means about -30% to -50%; inactive means above about -30%;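 note: stimulus is agonist 54-4 at its EC80 concentration; % is set by controls: 0 for no effect and ±100 for the full control effect; compound concentration not given in the record; the text of the record puts the active cut at -80%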
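Calcium fluorescence in TRPML1-DL cells induced overnight with Tet: a 110 s read after compound pin addition, then a 110 s antagonist read after challenge with 54-4 at 4 uM final (EC80).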
PINK1 expr mod = changes PINK1 expression; PINK1 immunofluorescence, high-content cytometry, 24 h; Potency, µM (highest dose often 76.6 µM), inactives show top-dose activation (PINK1 increase), actives largely listed as activators; 410,000 tested, 0.2% active; active = well fitted activation curve with a large enough effect; inconclusive = small, poorly fitted or top-dose-only effect; inactive = flat fitted curve, though single readings scatter; cell line not stated here;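 note: potency is the fitted concentration of half-maximal effect; % of control where 0% means no effect; nearly all actives have a fitted effect of over 65% in size; a mitochondrial uncoupler was the plate control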
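A stable cell line was treated with compounds at 5 concentrations for 24 hours, with CCCP as control. PINK1 levels and mitochondrial localization were measured by immunofluorescence with mitochondrial, cell and nuclear markers after fixation, read by laser-scanning cytometry.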
The depositor's hits bear a star; ? = inconclusive; · = no result given; & = joins results of further samples; [ ] = another dose, or the depositor's remark.

Structure	D2 ag	PINK1 expr mod	TRPML1 blocker	TRPML1 ag	Six1-Eya2 blk	CtBP-E1A blk
COc1ccc(NC(=O)CNC(=O)c2ccco2)cc1S(=O)(=O)Nc1cc(C)ccc1Br	1.5	0.7%	10	-0.1	-13	-4
O=C(O)CCNc1nc(-c2ccccc2)nc2ccccc12	-4.1	3.7%	-2	-0.5	?	-26
CCOc1ccc(N2C(=O)CC(Sc3ncccn3)C2=O)cc1 (stereo unspecified)	-1.6	2.3%	-9	-0.4	5	5
CC(=O)Nc1ccc(Nc2ncnc3c2nnn3Cc2ccccc2Cl)cc1	0.1	2.2%	-7	0.1	1	6
COc1cccc(CNC(=O)Cn2c(C)c3cnn(-c4ccccc4)c(=O)c3c2C)c1	·	0.5%	-8	-0.3	·	·
CCC(CC)C(=O)N(C)c1c(C)nc2c(OCC(=O)N(C)C)cccn12	-5.4	2.2%	·	-0.4	2	2
COc1ccc(NC(=O)CCN2CCN(S(=O)(=O)c3cc(Cl)ccc3OC)CC2)cc1	0.0	-1.0%	-3	-0.8	-5	-3
Cc1cc(Br)c(NC(=O)CSc2n[nH]c(N)n2)c(Br)c1	-3.7	-0.1%	-13	-0.4	1	1
CC(=O)c1cccc(NC(=O)COC(=O)c2ccc(S(C)(=O)=O)c([N+](=O)[O-])c2)c1	2.3	0.7%&2.2%	29	-0.6&-0.1	-17	-19
COc1ccc(-c2noc(-c3cccnc3N3CCN(c4ccc(OC)cc4)CC3)n2)cc1	·	-1.2%	19	0.0	·	·
COc1cc(C(=O)OC(C)CN2CCCC2)cc(OC)c1OC (stereo unspecified)	-2.8	-0.6%	5	-0.3	0	-7
CCCCCC(=O)Nc1nc(C)c(-c2csc(Nc3cc(OC)ccc3OC)n2)s1	-5.1	8.0%	-2	-0.4	-19	?
COc1ccc(OC)c2sc(N3CCN(C(=O)c4ccc5c(c4)CCCC5)CC3)nc12	·	-1.0%	13	2.7	·	·
CCN(CC)CCCNC(=O)c1ccc(Cn2c(=O)[nH]c3cc(OC)c(OC)cc3c2=O)cc1	·	0.9%	-19	-0.2	·	·
COc1ccccc1N1CCN(C(=O)Nc2cccc(C)c2)CC1	-0.3	2.4%	16	0.2	0	1
COc1ccc(N2CCN(S(=O)(=O)CCNC(=O)C3CCCCC3)CC2)cc1	-1.5	-1.2%	1	0.5	0	-1
CCn1cc(C(=O)OC)c(=O)c2cc(S(=O)(=O)N(C)C3CCCCC3)ccc21	-2.6	0.6%	11	0.1	-14	-3
CCCCn1c(N)c(N(CCOC)C(=O)C2CC(=O)N(c3cccc(SC)c3)C2)c(=O)[nH]c1=O (stereo unspecified)	-5.4	0.2%	-1	-0.3	0	7
CCc1ccc(S(=O)(=O)Nc2cc3c(cc2C)n(C)c(=O)n3C)cc1	10	11%	-9	0.2	9	·
C=CCc1cccc(/C=N/NC(=O)c2ccccc2Br)c1O	-2.8	18%	15	2.6	-11	-11
Cc1cc(=O)n2nc(N3CCC(C(=O)N4CCN(c5ccccc5)CC4)CC3)sc2n1	5.5	0.4%	-16	-0.5	-7	-9
COc1cc(OC)cc(C2C(C#N)=C(N)Oc3n[nH]c(-c4cccnc4)c32)c1 (stereo unspecified)	-0.1	·	-7	0.0	1	9
O/N=C/c1ccc(OCc2ccccc2F)c(Cl)c1	0.9	-1.3%	-3	0.5	12	-2
C[C@H](CO)N1C[C@H](C)[C@@H](CN(C)Cc2cccc(C(=O)O)c2)Oc2cc(Br)ccc2S1(=O)=O	0.4	-0.2%	?	-0.4	12	2
Cc1cccc(/C=N\NC(=O)c2ccc(Cl)cc2)c1O	-0.3	-1.3%	-16	1.0	-9	-25
CCc1cc(C(=O)Nc2sc(C)c(CC)c2C#N)no1	·	3.0%	18	-0.5	·	·
O=C(NCc1ccc(F)cc1)c1ccccc1OCc1ccccc1	0.1	-1.3%	-3	2.2	17	9
Cn1c(SCC(=O)N2CCOCC2)nnc1-c1ccncc1	-2.4	-1.8%	-8	0.6	-6	-7
CCOC(=O)N1CCN(S(=O)(=O)Cc2ccccc2)CC1	-2.2	-2.7%	-11	0.4	-4	8
CC(=O)Nc1ccc(SCC(=O)N2CCN(S(=O)(=O)c3ccccc3)CC2)cc1	0.6	0.4%	10	0.3	-1	-18
CS(=O)(=O)N1CCC(C(=O)Nc2ccc(C(N)=O)cc2)CC1	-0.5	1.4%	·	·	1	6
CCOc1ccc(/C=C2\SC(=S)N(NS(=O)(=O)c3ccc(C)cc3)C2=O)cc1OC	-2.4	0.0%	9	0.1	-7	-16
c1ccc2c(c1)nc(N1CCCCC1)c1ccccc12	-3.6	8.6%	-14	0.6	23	2
CC1CCN(C(=O)c2[nH]cnc2C(=O)N[C@H](C)c2ccccc2)CC1	-1.5	0.2%	-11	0.2	-4	6
Cc1ccc2c(c1)c1c(c(=O)n(-c3ccccc3)c(=O)n1CC(=O)NCCC1=CCCCC1)n2C	·	-0.2%	-2	-0.7	·	·
O=C(COc1coc(CN2CCN(c3ccccc3F)CC2)cc1=O)N1CCc2ccccc21	0.8	2.5%	-10	1.1	5	-17
CC(C)(C)OC(=O)N1CCC(c2c(C(=O)Nc3ccc4c(c3)OCCO4)cnn2-c2ccccc2)CC1	·	-0.3%	-23	1.0	·	·
Cc1ccc(NC(=O)CSc2nc3ccccc3c3nc(CCc4c(C)n[nH]c4C)nn23)c(C)c1	·	1.1%	-15	0.6	·	·
CCN(CC)c1ccc(NC(=O)CSc2nc(C3CC3)nc3ccccc23)cc1C	-0.1	7.2%	4	2.2	-16	-20
O=C(COc1ccc([N+](=O)[O-])cc1)Nc1cccc(C(=O)Nc2ccccc2C(=O)O)c1	-1.1	-0.3%	-1	0.2	-25	?
CC(=O)Nc1ccc(NC(=O)CSc2ncnn2-c2ccccc2)cc1	-2.5	1.0%	7	-0.8	0	4
O=C(c1cccs1)c1cn(CCOc2ccccc2Cl)c2ccccc12	·	-0.4%	30	2.2	·	·
COc1ccc(-c2nc3c(c(SCC(=O)N4CCCCC4)n2)Cc2cc(C)ccc2O3)cc1	·	0.6%	-11	-0.3	·	·
O=C(OCC#CCSc1nnc(-c2ccncc2)o1)c1cccs1	1.7	6.7%[38.3 µM]	-2	0.6	-3	3
CC[C@@]1(C(=O)OC)N[C@H](CN(C)C(=O)Nc2ccc(Cl)cc2)[C@@H]2C(=O)N(C)C(=O)[C@@H]21	-2.0	2.1%	-7	-1.2	7	7
COc1ccc(CCn2c(=S)[nH]c3cc(C(=O)N4CCOCC4)ccc3c2=O)cc1OC	-2.8	5.0%	-18	-0.6	-5	2
CC(=O)Nc1ccc(CCNC(=O)c2ccc3ccccc3c2O)cc1	2.8	11%	7	0.7	1	-6
O=C(CN1CCCC1)NN=C(c1ccccc1)c1ccccc1	-2.1	-1.8%	-3	0.3	-5	0
CCn1c(SCC(=O)Nc2nc3c(s2)CCCC3)nnc1-c1ccccc1	-2.2	-3.9%[38.3 µM]	27	1.4	-7	-8
CN(C(=O)CSc1ccccc1C(=O)O)C1CCCCC1	-0.5	4.8%[38.3 µM]	-7	0.4	7	15
CCc1nn(CC(=O)N2CCN(Cc3ccc4c(c3)OCO4)CC2)c(=O)c2cc3occc3n12	-1.6	1.4%	46	1.6	-13	-2
Cc1cc(C)n(C(C)n2nc(C)cc2C)n1	-4.8	-0.7%[38.3 µM]	13	-0.7	1	6
COc1ccc(-n2nnnc2SCC(=O)NC(=O)Nc2ccc3c(c2)OCCO3)cc1	-1.2	-1.1%	-24	-0.4	-12	-3
CCOC(=O)CSc1nc(-c2ccccc2)cc(C(F)(F)F)n1	2.0	-1.4%	37	2.1	36	26
CC1(C)CC(=O)/C(=C(/O)CCCN2C(=O)c3ccccc3C2=O)C(=NC(C)(C)C)C1	-1.2	-1.2%	10	3.2	7	12
CCOC(=O)C1=CC[C@@H](c2cc(OC)c(OC)c(OC)c2)N(S(=O)(=O)c2ccc(C)cc2)[C@H]1C(=O)OCC	0.3	1.7%	19	0.0	3	-3
COc1ccc(C2C(=O)N(C3CCCCC3)CC(=O)N2CC2COc3ccccc3O2)cc1 (stereo unspecified)	-2.3	2.0%[38.3 µM]	-14	0.1	1	2
CC1(C)Cc2cccc(OC(=O)NCCc3ccc(F)cc3)c2O1	·	-0.4%	·	-0.3	7	1
CCCCn1c(N)c(N(CC(C)C)C(=O)c2cc(Br)c(Br)s2)c(=O)[nH]c1=O	9.0	13%	-3	-0.7	10	-1
COc1ccccc1-c1nc(SCC(=O)NCc2ccco2)c2c(=O)n(C)c(=O)n(C)c2n1	4.6	7.0%	13	-0.4	-5	3

Full records, quoted from the list. Values in the order: D2 ag | PINK1 expr mod | TRPML1 blocker | TRPML1 ag | Six1-Eya2 blk | CtBP-E1A blk
Profile of CCc1nn(CC(=O)N2CCN(Cc3ccc4c(c3)OCO4)CC2)c(=O)c2cc3occc3n12 : -1.6 | 1.4% | 46 | 1.6 | -13 | -2
Profile of COc1ccc(C2C(=O)N(C3CCCCC3)CC(=O)N2CC2COc3ccccc3O2)cc1 (stereo unspecified) : -2.3 | 2.0%[38.3 µM] | -14 | 0.1 | 1 | 2

The list continues:
Structure	D2 ag	PINK1 expr mod	TRPML1 blocker	TRPML1 ag	Six1-Eya2 blk	CtBP-E1A blk
CCOC(=O)c1nn(C)c(C)c1Cl	-5.8	5.8%	-18	0.7	12	-12
O=C1c2oc3ccccc3c(=O)c2C(c2cccs2)N1CCCN1CCOCC1 (stereo unspecified)	-1.6	0.5%	-14	0.2	-1	-2
CSc1ccc(CNC(=O)c2sc3ncnc(N(C)C4CCCCC4)c3c2C)cc1	·	2.0%	4	0.3	·	·
COCC(=O)N1CCN(c2ccc([N+](=O)[O-])cc2)CC1	2.1	-2.1%	21	0.4	15	0
CCc1ccc(NC(=O)N(CCCN2CCOCC2)Cc2cccs2)cc1	-3.8	0.8%	10	-0.3	6	0
NNC(=O)CCN1CCCCC1	-2.3	0.4%	-1	-0.3	3	·
CNC(=O)C[C@H]1C(=O)N(c2ccc(OC)cc2)C[C@@H]1Cc1ccccc1	-1.8	1.8%	15	0.3	0	6
O=C(NCc1ccc(Cl)cc1Cl)C1CCN(S(=O)(=O)c2ccc3c(c2)OCCCO3)CC1	3.4	2.1%	-2	1.6	-23	4
O=C(/C=C/c1cccc(F)c1)N1CCN(c2ncccn2)CC1	-2.3	0.0%	34	0.5	0	8
CCOC(=O)N1CCN(C(=O)CNC(=O)Cn2cnc3ccccc3c2=O)CC1	-4.4	-1.3%	14	-0.5	-5	-6
Cc1c(Cl)ccc(S(=O)(=O)N2CCN=C2c2ccccc2)c1Cl	-1.9	1.7%	4	1.6	9	4
CCOCCCNCC(=O)N1CCN(S(=O)(=O)c2ccc(C)cc2)CC1	-2.2	4.7%[38.3 µM]	3	0.3	7	6
O=C(NCCCN1CCCC1=O)c1ccccc1OCc1ccc(Cl)cc1Cl	-2.0	-1.2%	-7	-0.3	24	-11
